Bioassay records (PubChem BioAssay)
NS1 inh = blocks influenza NS1 protein function | S. cerevisiae slowed by influenza A NS1, growth recovery by OD600 | Potency, µM (doses to about 46.1 µM), for inactives: at the top dose activity, positive = more growth | actives 0.4% (n = 270,000); active means well fitted rising curve with a large enough effect; inconclusive means small, poorly fitted or top-dose-only effect; inactive means no such curve, though single readings can be large or run the other way; further: nearly all actives have a fitted effect of over 50% in size
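S. cerevisiae expressing influenza A NS1, grown in glucose, washed, then diluted 1:100 into pH 6.0 -URA galactose medium with 23 nl compound. Growth recovery read as OD600; NS1-free strain serves as control.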
MARV entry inh = inhibitors of Marburg virus binding or cell entry; actives 1.8% (n = 300,000); Potency, µM (series often up to 37.8 µM), for inactives: top-dose activity change, negative = inhibition, hits mostly inhibitors; Marburg virus pseudotyped entry inhibition, cell reporter; control for the full effect not named in the record; about a third of the inactives were read at about 46 µM; active = well fitted inhibition curve with a large enough effect; inconclusive = small, poorly fitted or top-dose-only effect, or effect the other way; inactive = flat fitted curve, though single readings scatter; tested in HEK293 cells; about a fifth of its hits are not listed in these tables; further: on the % scale 0 is the no-effect control and ±100 the full control effect; luciferase read-out
2A StopGo = FMDV 2A StopGo reporter, luciferase signal; human cells with a luciferase reporter of 2A StopGo recoding; control for the full effect not named in the record; Potency, µM (highest dose often 57.9 µM), inactives show top-dose signal change, negative = less light; actives 1.2% (n = 410,000); AID 1159524; active = well fitted falling curve with a large enough effect; inconclusive = small, poorly fitted or top-dose-only effect; inactive = no such curve, though single readings can be large or run the other way; tested in HEK293T cells; further: on the % scale 0 is the no-effect control and ±100 the full control effect; nearly all actives have a fitted effect of over 45% in size; luciferase light after 4 h
SARS PLP yeast = blocks SARS-CoV papain-like protease in a yeast assay. S. cerevisiae expressing SARS-CoV PLpro, growth rescue; control for the full effect not named in the record. Potency, µM (doses to about 32.9 µM), for the others: at the top dose activity, positive = growth rescue. actives 0.19% (n = 330,000). AID 485353; active means well fitted rising curve with a large enough effect; inconclusive means small, poorly fitted or top-dose-only effect; inactive means no such curve, though single readings can be large or run the other way; further: 0% is about no effect; nearly all actives have a fitted effect of over 55% in size; growth read by luminescence after 48 h
LASV entry inh = Lassa virus entry inhibition; Lassa virus pseudotype entry inhibition, cell reporter; control for the full effect not named in the record; Potency, µM (highest dose often 37.9 µM), for the others: at the top dose activity change, negative = inhibition, usual class: inhibitors; actives 1.2% (n = 300,000); AID 540256; active means well fitted inhibition curve with a large enough effect; inconclusive means small, poorly fitted or top-dose-only effect, or effect the other way; inactive means flat fitted curve, though single readings scatter; tested in HEK293 cells; further: on the % scale 0 is the no-effect control and ±100 the full control effect; nearly all actives have a fitted effect of over 50% in size; luciferase read-out
Cruzain inh Det = cruzain (T. cruzi) inhibition with detergent; purified cruzain, Z-FR-AMC fluorescence, 0.01% Triton; Potency, µM, inactives show max response, negative = inhibition, usual class: inhibitors; actives 0.43% (n = 200,000); AID 1478;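 further: plate controls were neutral wells for no effect and buffer without enzyme for full effect; nearly all actives have a fitted effect of over 40% in size; top concentration of the series not given in the record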
Target sequence (P25779 123-467 limits assumed): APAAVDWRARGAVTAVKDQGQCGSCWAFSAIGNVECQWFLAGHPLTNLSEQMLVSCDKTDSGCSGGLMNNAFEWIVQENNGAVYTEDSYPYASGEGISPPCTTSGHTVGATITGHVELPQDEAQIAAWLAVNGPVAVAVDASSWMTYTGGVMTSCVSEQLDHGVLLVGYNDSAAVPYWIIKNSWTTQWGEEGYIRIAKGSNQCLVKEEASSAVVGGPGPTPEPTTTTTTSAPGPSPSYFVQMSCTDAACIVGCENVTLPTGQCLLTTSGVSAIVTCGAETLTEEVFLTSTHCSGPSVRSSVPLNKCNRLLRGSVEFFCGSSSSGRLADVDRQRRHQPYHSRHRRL
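Steps: dispense cruzain (1.5 nM final) in acetate buffer pH 5.5 with DTT and 0.01% Triton X-100; pin-transfer compounds; incubate 15 min RT; add Z-FR-AMC (2 uM final); read fluorescence every 30 s, using the 60 s intensity change.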
RE007 growth inh = less growth of the S. pombe RE007 Vpr strain; S. pombe RE007 Vpr strain, BacTiter-Glo ATP luminescence, 24 h; control for the full effect not named in the record; Potency, µM (top dose mostly 92.2 µM), for inactives: top-dose activity change, negative = less growth; actives 0.21% (n = 360,000); AID 651644; active = well fitted falling curve with a large enough effect; inconclusive = small, poorly fitted or top-dose-only effect; inactive = no such curve, though single readings can be large or run the other way;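 further: on the % scale 0 is the no-effect control and ±100 the full control effect; nearly all actives have a fitted effect of over 50% in size; the assay follows cell death caused by Vpr and the record does not say whether a fall means rescue or toxicity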
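Fission yeast RE007 carrying one integrated HIV-1 vpr copy, seeded at OD 0.01 in PMG+AL medium with 23 nL pinned compound. Grown 24 h at 30 degrees; viability read by BacTiter-Glo luminescence after 5 min.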
Cruzain noTriton = inhibitors of Trypanosoma cruzi cruzain without detergent; P25779; purified cruzain, Z-FR-AMC fluorescence, no detergent; Potency, µM, for the others: max response, negative = inhibition, most hits filed as inhibitors; actives 2.3% (n = 200,000);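 further: plate controls were enzyme without inhibitor for no effect and buffer without enzyme for full effect; nearly all actives have a fitted effect of over 40% in size; top concentration of the series not given in the record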
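Purified cruzain at 1.5 nM, pre-incubated 15 min with compound at room temperature in 100 mM sodium acetate pH 5.5, 5 mM DTT, 0.00005% Triton X-100. Reaction started with 2 uM Z-FR-AMC; AMC fluorescence increase over 60 s gives rate.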
Numbers without * were called inactive; ? = inconclusive; . = not tested or not shown; & = joins results of further samples; [ ] = remark or other dose. Unless noted, the call rests on the fitted dose curve; in most records, active means well fitted curve in the direction sought with a large enough effect; inconclusive means small, poorly fitted or top-dose-only effect, or another doubt; inactive means no such curve, though single readings can be large; an effect the other way counts as inactive or inconclusive. Potency means the concentration at half of the fitted maximal effect.

compound	NS1 inh	MARV entry inh	2A StopGo	SARS PLP yeast	LASV entry inh	Cruzain inh Det	RE007 growth inh	Cruzain noTriton
Cc1cc2ncn(C3CC(=O)N(C)C3=O)c2cc1C (stereo not drawn)	-5%	-1%	11%	4%	0%	0.4%	0%	-3%
CC1Cc2ccccc2N1S(=O)(=O)c1cccc(C(=O)NCc2ccncc2)c1 (stereo not drawn)	.	7.9µM*	-30%	-6%	-20%	.	-10%	.
O=C(CCS(=O)(=O)c1cc(Br)cc2c1N(C(=O)C1CC1)CC2)N1CCN(c2cccc(C(F)(F)F)c2)CC1	.	?	0%	.	?	1.3%	.	-1%
COc1ccc(S(=O)(=O)N2CCN(Cc3cccc(OC)c3OC)CC2)cc1	-10%	.	-14%	-1%	.	.	5%	.
CCS(=O)(=O)c1ccc(O)c(Nc2cc(C)nc(SC)n2)c1	.	?	-28%	.	16%[46.1 µM]	-12%	.	-20%
O=c1[nH]c2ccc(S(=O)(=O)Nc3ccccc3O)cc2[nH]1	-68%	?	5%	-5%	20%[46.1 µM]	.	5%	.
Cc1c2n(c3ccccc13)CC/C2=N\O	-6%	?	8%	0%	13%	.	-11%	.
Cc1ccc2oc(-c3ccc(C)c(NC(=O)c4ccc(N5CCC(C)CC5)c([N+](=O)[O-])c4)c3)nc2c1	.	3%[46.1 µM]	58%[activator]	.	25%[46.1 µM]	0.9%	.	14%
COc1ccc(Cl)cc1NS(=O)(=O)c1cc(Cl)ccc1OC	6%	-4%	70%[activator]	3%	8%	-1.7%	17%	2%
CC1CCC/C(=N\NC(=O)COc2ccc(Cl)cc2Cl)C1 (stereo not drawn)	8%	?	-3%	15%	19%	4.1%	-1%	5%
COc1ccc(S(=O)(=O)N(Cc2ccc(OC)c(OC)c2)Cc2ccco2)cc1	-44%	-5%	?	-4%	?	0.1%	2%	?
N#C/C(=C/c1ccncc1)c1nc2ccccc2s1	2%	15%	44%[activator]	-1%	10%	.	-28%	.
O=C(NC1CCCCC1)C(c1cccnc1)N(C(=O)c1csnn1)c1ccc(F)cc1 (stereo not drawn)	-1%	-12%[46.1 µM]	-6%	0%	14%	.	12%	.
CCCC(=O)c1c(NC(C)C)cc(C)oc1=O	-14%	-22%	-1%	-1%	14%	0.6%	18%	-3%
COC(=O)CCSc1cc([N+](=O)[O-])cc2c1c(C1OCCS1)nn2-c1ccccc1 (stereo not drawn)	28%	-21%	?	3%	-1%	-3.4%	2%	7%
CC(C)/C=C/C(=O)N1CCC(N2CCC(C(=O)N3CCOCC3)CC2)CC1	2%	5%[46.1 µM]	-2%	1%	11%[46.1 µM]	.	4%	.
O=C(NCC(c1cccnc1)N1CCc2ccccc2C1)c1ccc(F)c(F)c1 (stereo not drawn)	.	.	-20%	.	22%[46.1 µM]	-3.3%	.	-4%
O=C(Nc1sc2c(c1C(=O)O)CCC2)c1ccccc1F	-77%	.	13%	-5%	.	.	-22%	.
CCOC(=O)CCc1c(C)c2ccc(OCC)c(C)c2oc1=O	-56%	11%	45%[activator]	10%	11%	-4.6%	-8%	-6%
CCOP(=O)(c1ccccc1)C(O)c1ccc(Br)cc1 (stereo not drawn)	6%	-1%	-10%	4%	3%	-1.5%	0%	6%
CC1CCN(C(=O)c2cc3ccccc3cc2O)CC1	0%	1%[46.1 µM]	33%[activator]	-14%	19%[46.1 µM]	.	6%	.
O=C(Cn1ccc2ccccc2c1=O)NCC(=O)N1CCC2(CC1)OCCO2	.	-19%[46.1 µM]	-2%	-3%	-6%[46.1 µM]	.	7%	.
COc1ccc(NC(=O)O/N=C/c2ccccc2Cl)cc1	-3%	.	64%[activator]	-1%	.	.	-1%	.
Cc1ccc(-c2csc(Nc3ccc(C(=O)O)cc3)[n+]2Cc2ccccc2)cc1	2%	?	-10%	-1%	-6%[46.1 µM]	.	2%	.
Cc1nnsc1C(=O)Nc1ccc(Cl)cc1	-3%	28%	18%	11%	-2%	-0.2%	-11%	-6%
O=C(NC1CCCc2ccccc21)C1CCN(C(=O)c2sccc2-n2cccc2)CC1 (stereo not drawn)	-82%	-3%	-13%	6%	.	-2.6%	-5%	-16%
Cc1ccc(-c2nc3cc(Br)cnc3nc2-c2ccc(C)cc2)cc1	.	3.2µM*	?	1%	?	.	0%	.
Cc1ccc2c(C)c(C(=O)N(Cc3ccccc3)C3CCS(=O)(=O)C3)oc2c1 (stereo not drawn)	-12%	-27%[46.1 µM]	-24%	-4%	-16%	.	16%	.
Cc1occc1C(=O)N/N=C/c1ccccc1[N+](=O)[O-]	-10%	?	1%	-1%	?	.	24%	.
CCOC(=O)N1CCN(c2c(N3CC=C(c4ccccc4)CC3)c(=O)c2=O)CC1	-9%	.	?	-2%	.	-0.5%	-10%	4%
N#Cc1ccc(OCC(=O)N/N=C2/CC(c3ccccc3)Oc3ccccc32)cc1 (stereo not drawn)	5%	?	?	14%	?	-7.5%	-6%	8%
CCOc1cc(C(=O)NC(C)C2CC3CCC2C3)cc(OCC)c1OCC (stereo not drawn)	.	2%[46.1 µM]	-5%	.	-2%	.	4%	.
O=C(NCc1ccncc1)C1CCCN(S(=O)(=O)Cc2ccccc2)C1 (stereo not drawn)	0%	7%[46.1 µM]	-4%	7%	10%	0.7%	-17%	6%
Cc1nn2c(N3CCOCC3)cc(C(C)(C)C)nc2c1-c1ccccc1	-6%	.	-13%	0%	.	.	1%	.
CC(C)N(Cc1nc(-c2ccccc2)no1)C(=O)c1ccc(Br)o1	-23%	14%[46.1 µM]	-6%	-7%	27%	-7.8%	0%	3%
Cc1cccc(-c2onc3ccc(C4(C)OCCO4)cc23)c1	9%	-8%	?	-25%	.	-2.5%	.	5%
Cc1cc(C(=O)CCC(=O)NC(C)c2ccc(S(N)(=O)=O)cc2)c(C)s1 (stereo not drawn)	.	-10%	4%	-2%	?	.	7%	.
Cc1ccc(S(=O)(=O)Nc2ccc3c(c2)OCCO3)c(C)c1NS(C)(=O)=O	-5%	-6%[46.1 µM]	-3%	-3%	-19%[46.1 µM]	.	-15%	.
C/C(=N\Nc1ncc(Cl)cc1Cl)c1ccc2c(c1)OCO2	1%	.	76%[activator]	-1%	.	.	-2%	.
O=C(NNS(=O)(=O)c1ccc(Cl)cc1)c1cnn(-c2ccccc2)c1-n1cccc1	8%	?	-3%	-4%	8%	-3.1%	15%	5%
Cc1ccccc1NC1=NC(=S)N(c2ccccc2)C12CCCCC2	4%	?	?	-13%	-7%	-3.5%	-1%	6%
N=c1n(Cc2ccccc2)c2ccccc2n1CC(O)c1ccco1 (stereo not drawn)	-12%	?	-2%	8%	4%	-0.2%	-17%	8%
Cc1nc(N2CCOCC2)c(C#N)c(C)c1Br	-2%	4%	-14%	-3%	-11%	2.4%	-23%	2%
Nc1cc2ccccc2oc1=O	-2%	21%	-2%	3%	4%	-1.1%	3%	-1%
CN(C)S(=O)(=O)c1ccc(N2CCOCC2)c(C(=O)O)c1	1%	?	-8%	-7%	11%	-2.9%	18%	-4%
CCn1c(-c2cccnc2Cl)nc2ccccc21	8%	-14%	31%	-3%	-4%	7.4%	-4%	-4%
NC(=O)C1CCN(CCC(=O)Nc2ccc(F)c(F)c2)CC1	-4%	-4%	-1%	-1%	-1%	.	-5%	.
COC(=O)C1CCN(C(=O)CCC2CCCCC2)CC1	-5%	14%	18%	2%	20%	-1.2%	-10%	1%
CSc1ccc(S(=O)(=O)N2CCC(C(=O)Nc3ccc(NC(C)=O)cc3)CC2)cc1	-5%	24%[46.1 µM]	-1%	0%	9%[46.1 µM]	.	2%	.
CC(C)Cn1c(CN2CCN(c3cccc(Cl)c3)CC2)nc2c1c(=O)[nH]c(=O)n2C	.	?	0%	.	?	1.5%	.	-3%
CCOc1ccc(NC(=O)c2cn(C)c(=O)c3cc(OC)c(OC)cc23)cc1	.	9%[46.1 µM]	-7%	.	9%[46.1 µM]	0.3%	.	-1%
COc1ccc(CNC2CCCCC2)cc1	-7%	3%&3%	0%	3%	6%	0.9%	1%	-4%
COCCOC(=O)c1c(C)oc2ccc(OC(=O)COc3c(F)c(F)c(F)c(F)c3F)cc12	-5%	-2%&-2%	34%[activator]	-1%	5%	-7.1%	1%	-9%
CCOc1ccc(OCC(=O)OC(C)C(=O)NC2CCCCC2C)cc1 (stereo not drawn)	.	26%	-11%	-3%	-5%	.	-26%	.
O=C(OCC(=O)c1ccccc1Cl)c1cnccn1	6%	12%	-9%	-13%	4%	-2.7%	3%	11%
Cc1ccc(C2CC(=O)c3cnc(NC(=O)c4ccco4)nc3C2)cc1 (stereo not drawn)	-14%	9%&9%	-19%	3%	6%	-3.7%	4%	1%
O=C(Nc1ccc(N2CCC(N3CCCCC3)CC2)c(C(=O)O)c1)c1ccc(Br)cc1	.	.	10%	.	-5%[46.1 µM]	1.9%	.	-11%
CCn1c(SCC(=O)N/N=C\c2ccccc2OCC(=O)O)nnc1-c1ccc(Cl)cc1	-1%	19%[46.1 µM]	52%[activator]	0%	-1%	.	1%	.
Cc1nc(NCc2ccccc2)[nH]c(=O)c1CCC(C)C	-55%	-1%	8%	-1%	40%[14.3 µM]	-1.0%	-10%	-12%
Cc1cc(CNC(=O)CC2C(=O)NCCN2Cc2ccccc2)nn1C (stereo not drawn)	-1%	.	-7%	-2%	.	.	-6%	.
